eIF4H inh – inhibitors of RNA binding by human eIF4H. Q15056. eIF4H fluorescence polarization binding assay. inhibition, % at 35 µM. hit rate 0.94% among 290,000. AID 2012;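 active means 50% or more with normal probe brightness, or confirmed in later tests; inconclusive means above 50% with abnormal brightness, or retests that disagree; inactive means below 50% or failed in later tests; about a fifth of its hits are not listed in these tables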;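 further: calls also rest on retests at 20 µM and on dose response follow-up; 0% = protein and probe with vehicle and 100% = probe without protein; strong numbers were not always called active; many hits fall short of the cut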
Rce1 inhib – inhibitors of yeast Ras-converting enzyme | yeast membranes, quenched prenylated peptide cleavage fluorescence | calls only | hit rate 0.27% among 290,000 | Q03530 | AID 2563;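 active means fall in fluorescence gain of 50% or more versus controls, with final raw signal at or below 3038400; inconclusive means same 50% fall but final raw signal above 3038400; inactive means fall in fluorescence gain under 50%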;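 further: plate controls were neutral control wells for no effect and wells lacking membranes for full effect; tested at 10 µM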
Env fusion inh – blocks HIV Env-driven cell-cell fusion | HeLa-JRFL Env/CEM21 cell fusion, luciferase | hit rate 1.1% among 360,000 | inhibition, % at 12.3 µM | AID 651610;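 active means mean replicate inhibition score of at least 50 and every replicate individually at or above 50; inconclusive means only one of the two criteria met; inactive means mean below 50 and not all replicates reaching 50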;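 further: 0% = plate neutral controls and 100% = maraviroc near 300 nM; one replicate is shown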
CSC inhib – blocks cancer stem cells; cancer stem cell-like cells viability, luminescence; inhibition, % at 7.5 µM; hit rate 1.1% among 300,000;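 active means mean at 75% or more and at least half the replicates too; inconclusive means mean and replicates disagree; tested in HMLE shEcad cells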;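 further: 0% = median of negative and 100% = median of positive control wells; the first replicate is given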
PABP polyA inh – PABP-poly(A) binding inhibition; inhibition, % at 35 µM; PABP-poly(A) RNA binding, fluorescence polarization; hit rate 1% among 290,000; P11940;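 active means 50% or more with normal probe brightness, or confirmed in later tests; inconclusive means above 50% with abnormal brightness, or retests that disagree; inactive means below 50% or failed in later tests; about a fifth of its hits are not listed in these tables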;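 further: calls also rest on retests at 20 µM and on dose response follow-up; controls were probe without protein and protein plus probe with vehicle; some compounds called inactive have numbers as strong as hits; many hits fall short of the cut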
Target sequence (P11940 whole entry, looked up): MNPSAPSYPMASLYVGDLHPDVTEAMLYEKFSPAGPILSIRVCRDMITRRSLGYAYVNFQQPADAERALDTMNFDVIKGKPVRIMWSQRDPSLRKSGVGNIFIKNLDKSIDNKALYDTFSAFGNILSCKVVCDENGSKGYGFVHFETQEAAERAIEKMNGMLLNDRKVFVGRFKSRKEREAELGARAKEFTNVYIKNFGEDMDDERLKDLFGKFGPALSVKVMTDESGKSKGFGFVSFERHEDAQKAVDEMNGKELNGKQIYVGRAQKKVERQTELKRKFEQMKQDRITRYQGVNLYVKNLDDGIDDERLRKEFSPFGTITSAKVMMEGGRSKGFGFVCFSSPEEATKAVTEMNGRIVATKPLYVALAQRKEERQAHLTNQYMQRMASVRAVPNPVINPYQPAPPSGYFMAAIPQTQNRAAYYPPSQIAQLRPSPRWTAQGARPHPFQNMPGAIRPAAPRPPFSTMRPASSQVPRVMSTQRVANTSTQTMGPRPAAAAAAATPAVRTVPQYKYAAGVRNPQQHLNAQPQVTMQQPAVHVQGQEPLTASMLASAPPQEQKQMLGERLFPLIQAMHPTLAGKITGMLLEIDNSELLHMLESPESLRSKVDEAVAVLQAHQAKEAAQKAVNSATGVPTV
MT1-MMP act inh – MT1-MMP (human) activation inhibition; P50281; HT1080 RFP-PRO-GFP cells, GFP/RFP ratio fluorescence, overnight; percent of plate control window, DMSO zero; GFP/RFP ratio change, % at 20 µM; hit rate 0.061% among 360,000; AID 651647;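 active means GFP/RFP ratio change of at least 30% with cell ATP level not reduced by more than half and red fluorescence within 50% of control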; further: strong numbers were not always called active
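Assay system: HT1080 RFP-PRO-GFP cells | Dosing: 20 µM single dose, 1% DMSO | Incubation: Cells overnight before dosing, compound overnight, 37 °C, 5% CO2 | Evaluation: GFP/RFP fluorescence ratio | Control set: DMSO-only wells and HT1080 RFP-L50D-GFP cell wells as references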
UUG fidelity – yeast start codon fidelity modulation; S. cerevisiae UUG-firefly luciferase reporter, luminescence/redox ratio; activity score, % at 18.7 µM; hit rate 0.13% among 350,000;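 active means replicate mean at a twofold rise or more, about +100% in these data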;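 further: firefly luciferase made from a UUG start codon reports start codon fidelity; reporter light over untreated wells divided by growth signal over untreated wells; some hits fall short of that in this replicate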
eIF4H inh retest – also measured in eIF4H inh; calls as there; inhibition, %; compound at 20 µM; confirmation average;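 mean of two retest wells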
PABP polyA inh retest – also measured in PABP polyA inh; calls as there; inhibition, %; compound at 20 µM; confirmation repeats;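 mean of two retest wells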
MT1-MMP act inh RFP – second read-out of MT1-MMP act inh, no call of its own (marks repeat the call); RFP signal change, %; measured here: RFP expression control read;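 0 = vehicle wells; hits needed this value within 50% of zero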
* = called active by the depositor; i = inactive; u = inconclusive; x = not tested or not shown; & = joins results of further samples; [ ] = another dose, or the depositor's remark. The list is partial; count on the stated rates, not on these rows.

SMILES | eIF4H inh | Rce1 inhib | Env fusion inh | CSC inhib | PABP polyA inh | MT1-MMP act inh | MT1-MMP act inh RFP | UUG fidelity | others
Cc1cc(=O)oc2ccc(OC(C)C(=O)O)cc12 (configuration not stated) | -5 | i | 15 | -7 | -13 | -1 | -2 | -6
CC(=O)N(C)c1ccc(NC(=O)c2cnn(C)c2)cc1 | -4 | i | x | -2 | 2 | 9 | 12 | -21
CC(NC(=O)c1cc(-c2ccccn2)nc2ccc(Cl)cc12)C1CCCO1 (configuration not stated) | 7 | i | -10 | -15 | 15 | -3 | 2 | -31
CC(C)NC(=O)N(C)C[C@H]1Oc2ccc(NC(=O)CCN3CCOCC3)cc2C(=O)N([C@H](C)CO)C[C@@H]1C | x | x | -13[16.7 µM] | x | x | 0 | 7 | -10&-1
Cc1oc(-c2ccc(Cl)cc2)nc1CS(=O)CC(=O)NCCCN1CC(C)CC(C)C1 (configuration not stated) | -10 | i | -2 | -11 | -13 | -1 | -1 | -27
Cc1ccc2c(N)c(C#N)sc2n1 | -5 | i | -51 | -2 | -5 | -2 | 1 | -10
O=C(Nc1ccc(N2CCOCC2)cc1)C1CCCN(S(=O)(=O)c2ccccc2)C1 (configuration not stated) | -2 | i | x | -16 | 2 | 2 | -8 | -25
O=C(O)/C=C/C(=O)Nc1ccccc1C(=O)Nc1ccccc1 | 1 | i | -38 | 2 | 3 | -7 | -4 | 1
Cc1cc(C(=O)CN2C(=O)NC(CC(C)C)C2=O)c(C)n1-c1ccccc1F (configuration not stated) | 5 | i | 12 | 5 | 5 | 3 | 6 | -22
O=C(COC(=O)c1ccc(S(=O)(=O)N2CCCC2)cc1)Nc1ccc(Cl)cc1 | x | x | 23 | 5 | x | 2 | 0 | -20
Cc1nnc2sc(SCC(=O)Nc3ccc(Br)cc3)nn2c1=O | 2 | i | -3 | 6 | 3 | -4 | -3 | x
Cc1ccc(C2CC(=O)Oc3cc(C)cc(C)c32)cc1 (configuration not stated) | x | x | 11 | x | x | 3 | 1 | 8
O=C(c1ccoc1)N1CCCC(N2CCN(c3cccc(C(F)(F)F)c3)CC2)C1 (configuration not stated) | -5 | x | 10 | 7 | -6 | 0 | -10 | -2
NC(=O)C1CC(=O)N(c2ccc(OCc3ccc([N+](=O)[O-])cc3)cc2)C1 (configuration not stated) | 5 | i | -53 | -7 | -16 | 3 | 5 | 15
CCn1nnnc1SCC(=O)c1ccc(C)cc1C | -5 | i | x | -3 | 7 | 2 | 1 | -39
CCc1cc2c(N[C@@H](Cc3ccccc3)C(=O)O)ncnc2s1 | 3 | i | -1 | -12 | 17 | -3 | -2 | -23
OCCN1CCN(C(=S)Nc2ccc(SC(F)F)cc2)CC1 | 0 | i | -10 | -7 | 84 | 4 | 6 | x | eIF4H inh retest=-12;PABP polyA inh retest=2
N#Cc1ccc(Oc2cccc3cccnc23)c([N+](=O)[O-])c1 | u | i | 2 | 3 | u | -5 | -2 | -14
N=c1c(S(=O)(=O)c2ccc(Cl)cc2)cc2c(=O)n3ccccc3nc2n1CC1CCCO1 (configuration not stated) | -6 | i | x | -6 | 0 | 1 | 1 | -1
O=C(O)c1ccc(Cl)cc1NC(=O)C1CCN(S(=O)(=O)c2cccs2)CC1 | x | x | -19 | x | x | -3 | 1 | -2
COc1ccc(OC)c(C2/C(=C(/O)c3cnn(-c4ccccc4)c3C)C(=O)C(=O)N2CCN(C)C)c1 (configuration not stated) | x | i | -6 | -15 | x | 3 | 2 | x
Cc1noc(C)c1S(=O)(=O)N1CCC(C(=O)Nc2ccc(Br)cc2)CC1 | -12 | i | -2 | -4 | -6 | 8 | -6 | -14
CC(C)(C)NC(=O)C[C@H]1C[C@H](C(=O)N2CCCCC2)[C@@]2(CCc3ccccc3)c3[nH]c4ccc(Cl)cc4c3CCN2C1=O | x | x | 28 | x | x | -39 | -34 | -15
CCOC(=O)C1(Cc2ccccc2)CCN(C2Cc3ccccc3C2)CC1 | 1 | x | -11 | 21 | 12 | -10 | -4 | -2
Cc1[nH]c2ccccc2c1C(=O)C(=O)N1CCN(c2cccc(Cl)c2)CC1 | -13 | i | 4 | 46 | -10 | 1 | 2 | 5
O=[N+]([O-])c1cccc(/C=N\N=C2c3ccccc3-c3ccccc32)c1O | 10 | i | x | -10 | 5 | -4 | -4 | x
O=C(NNC(=O)C12CC3CC(CC(C3)C1)C2)c1ccncc1 | -6 | i | -7 | 2 | 11 | -2 | 1 | x
CC(=O)SCC(C)C(=O)NCc1ccccc1 (configuration not stated) | -4 | i | -42 | -2 | -1 | 0 | 1 | -19
CCN(CC)C(=O)c1sc(NC(=O)c2ccc(C)c([N+](=O)[O-])c2)c(C#N)c1C | 7 | i | x | x | 7 | 7 | -10 | -14
CCOC(=O)c1cc(-c2cccc([N+](=O)[O-])c2)n[nH]1 | -8 | i | -5 | 2 | -4 | 1 | 1 | -40
O=C(O)c1ccc(N=Cc2c(O)ccc3oc4c(c23)CCCC4)cc1 | -1 | i | 0 | 24 | 2 | -13 | -2 | x
Cn1ncc(Cl)c1C(=O)NCc1ccco1 | 3 | i | 3 | -7 | -1 | 0 | 0 | -18
COc1cccc(Oc2ccc(C(F)(F)F)cc2NC(=O)c2cccc(F)c2)c1 | 0 | i | -6 | -4 | 4 | -7 | -9 | x
CN(C)c1ccc(CNC(=O)C2CCC(CNc3c(N4CCCCC4)c(=O)c3=O)CC2)cc1 (configuration not stated) | 0 | i | 7 | -10 | 10 | 2 | 4 | -12
COc1ccc(C2CC(=O)C3=C(C2)Nc2ncnn2C3c2ccccc2C)cc1 (configuration not stated) | 8 | i | -46 | -26 | -5 | 3 | 1 | x
CC(=O)Nc1ccc(N(CC(=O)NC2CCCCC2)C(=O)Cn2nnc(-c3ccccc3)n2)cc1 | -4 | i | 12 | -5 | 15 | 6 | 5 | 2
CCCCOC(=O)Oc1ccc2c(=O)c(Oc3cccc(C)c3)coc2c1 | 2 | i | -34 | -7 | 3 | -3 | -4 | x
COc1ccccc1-c1ccc2c(c1)C(C)(Cc1cccc(C#N)c1)C(=O)N2 (configuration not stated) | x | x | 101* | x | x | -1 | -9 | -4
C=CCC(NCc1ccco1)c1ccc(OC)cc1OC (configuration not stated) | -5 | i | x | -12 | 0 | x | x | x
CC(C)CCN(C(=O)c1csnn1)C(C(=O)NC1CCCCC1)c1ccc(F)cc1 (configuration not stated) | -14 | i | 59* | -6 | -1 | -2 | -4 | 1

A draw from above in order of SMILES length, ascending.
SMILES | eIF4H inh | Rce1 inhib | Env fusion inh | CSC inhib | PABP polyA inh | MT1-MMP act inh | MT1-MMP act inh RFP | UUG fidelity | others
Cn1ncc(Cl)c1C(=O)NCc1ccco1 | 3 | i | 3 | -7 | -1 | 0 | 0 | -18
CC(=O)SCC(C)C(=O)NCc1ccccc1 (configuration not stated) | -4 | i | -42 | -2 | -1 | 0 | 1 | -19
O=C(NNC(=O)C12CC3CC(CC(C3)C1)C2)c1ccncc1 | -6 | i | -7 | 2 | 11 | -2 | 1 | x
CCOC(=O)C1(Cc2ccccc2)CCN(C2Cc3ccccc3C2)CC1 | 1 | x | -11 | 21 | 12 | -10 | -4 | -2
CCOC(=O)c1cc(-c2cccc([N+](=O)[O-])c2)n[nH]1 | -8 | i | -5 | 2 | -4 | 1 | 1 | -40
COc1ccc(C2CC(=O)C3=C(C2)Nc2ncnn2C3c2ccccc2C)cc1 (configuration not stated) | 8 | i | -46 | -26 | -5 | 3 | 1 | x
COc1cccc(Oc2ccc(C(F)(F)F)cc2NC(=O)c2cccc(F)c2)c1 | 0 | i | -6 | -4 | 4 | -7 | -9 | x
O=[N+]([O-])c1cccc(/C=N\N=C2c3ccccc3-c3ccccc32)c1O | 10 | i | x | -10 | 5 | -4 | -4 | x
CC(=O)Nc1ccc(N(CC(=O)NC2CCCCC2)C(=O)Cn2nnc(-c3ccccc3)n2)cc1 | -4 | i | 12 | -5 | 15 | 6 | 5 | 2
CC(C)(C)NC(=O)C[C@H]1C[C@H](C(=O)N2CCCCC2)[C@@]2(CCc3ccccc3)c3[nH]c4ccc(Cl)cc4c3CCN2C1=O | x | x | 28 | x | x | -39 | -34 | -15

Next section:
SMILES | eIF4H inh | Rce1 inhib | Env fusion inh | CSC inhib | PABP polyA inh | MT1-MMP act inh | MT1-MMP act inh RFP | UUG fidelity | others
CC(=O)c1cn(CCOc2cc(C)ccc2C)c2ccccc12 | 0 | i | 18 | 3 | 11 | 7 | -29 | 3
CCOC(=O)c1ccc(N2C(=O)C(CC(N)=O)N(NC(=O)c3cccc(F)c3)C2=S)cc1 (configuration not stated) | -6 | i | 9 | 1 | 11 | 2 | 5 | -16
CCCCCc1cc(=O)oc2c(C(CCN3CCN(c4ccccc4)CC3)c3ccc(N(C)C)cc3)c(OC)cc(OC)c12 (configuration not stated) | -11 | i | 37 | 8 | -11 | 1 | -6 | -9
C=CCNS(=O)(=O)c1cccc(C(C)=O)c1 | -2 | i | u | 20 | 6 | -1 | 3 | x
O=C(O[C@@H]1[C@H](Cc2ccccc2)NS(=O)(=O)[C@H]2C[C@@H]3C=C[C@]12O3)c1ccccc1Br | x | x | 27 | 6 | x | 7 | 0 | 4
C=CCn1c(SCC(=O)N2CCN(c3ccc(F)cc3)CC2)nnc1-c1cccs1 | -5 | i | 1 | -16 | 3 | -5 | -15 | -10
N=c1c(S(=O)(=O)c2ccc(Cl)cc2)cc2c(=O)n3ccccc3nc2n1C1CCCC1 | 30 | i | 12 | -5 | 7 | -3 | -10 | 5
Cc1ccc(NC(=O)CN(C)Cc2cccs2)cc1Cl | 5 | x | -16 | 2 | 14 | -1 | -3 | 1
COc1cccc(/C(=N/O)C2CC2c2ccc(Cl)cc2)c1 (configuration not stated) | 7 | i | -3 | 24 | 6 | 0 | -3 | x
Cn1c(=O)c2c(nc(CO)n2C)n(C)c1=O | -2 | i | -4 | x | 6 | 4 | 3 | -19
Cc1cccc(Oc2ccccc2NC(=O)CSCC(=O)Nc2cc(C)on2)c1 | x | x | 22 | x | x | -14 | -29 | -4
Cc1cccc(C)c1N(CC(=O)NN=C1CCCCCC1)S(C)(=O)=O | 3 | i | x | -5 | 2 | -2 | 2 | x
Cn1nc2c3cc(F)ccc3n(Cc3ccc(F)cc3)cc-2c1=O | -3 | i | 13 | -16 | 3 | 2 | -1 | x
CCOC(=O)n1ccc(C(=O)Nc2ccccc2F)n1 | -5 | i | -41 | -15 | -4 | -4 | 0 | -14
O=C(c1cccc(OCc2ccccc2)c1)N1CCOCC1 | 9 | i | -5 | -12 | -1 | 0 | 0 | -17
CCC1CCCCN1C(=O)CCn1c(=O)oc2ccccc21 (configuration not stated) | x | i | 16 | -5 | x | 2 | 4 | -9
COc1ccc(CC(=O)NCC(=O)N/N=C/c2ccco2)cc1 | 1 | x | 9 | x | 4 | 7 | -1 | x
COc1ccnc(Oc2cccc(C(F)(F)F)c2)c1C(=O)N/C=N/OCc1ccccc1F | 0 | x | -1 | 7 | 1 | -2 | -4 | -17

Source: PubChem (several laboratories)
